# TRPML1 blocker: qHTS for Inhibitors of the Human Mucolipin Transient Receptor Potential 1 (TRPML1). TRPML1-inducible cells, Ca2+ dye fluorescence, FDSS; stronger effect = lower value; inhibition of EC80 agonist-evoked calcium signal. Mucolipin-1 (Homo sapiens), Q9GZU1. activity change, negative = inhibition, % (test concentration not listed). 390,000 compounds, 0.02% hits; in the data active means activity change below about -50%; inconclusive means about -30% to -50%; inactive means above about -30%;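 note: stimulus is agonist 54-4 at its EC80 concentration; % is set by controls: 0 for no effect and ±100 for the full control effect; compound concentration not given in the record; the text of the record puts the active cut at -80%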
#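 Calcium fluorescence in TRPML1-DL cells induced overnight with Tet: a 110 s read after compound pin addition, then a 110 s antagonist read after challenge with 54-4 at 4 uM final (EC80).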
# TRPML1 agonist: qHTS for Agonists of the Human Mucolipin Transient Receptor Potential 1 (TRPML1). Mucolipin-1 (Homo sapiens), Q9GZU1. TRPML1-expressing cells, Ca2+ dye fluorescence, FDSS; host cell line not named in the record; reference of the full effect not given here. activation, % (no concentration beside the values). 410,000 compounds, 0.12% hits. AID 624414, 2012; in the data active = activation above about 50%; inconclusive = about 30% to 50%; inactive = below about 30%; note: 0% is about no effect; the text of the record puts the active cut at 80%
#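 TRPML1-DL cells, Tet-induced overnight (~16 h, 37 degrees C), loaded 45-90 min at room temperature with Ca8 no-wash calcium dye plus quencher. FDSS fluorescence: 10 s baseline, compound pin-transfer, 110 s agonist read, then EC80 54-4 (4uM final) and 110 s antagonist read.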
# D2 PAM: Beta-Arrestin HTS for Positive Allosteric Modulators of the Human D2 Dopamine Receptor: Potentiators; 360,000 compounds, 0.23% hits; D(2) dopamine receptor (Homo sapiens), P14416; AID 624464, 2012; DiscoveRx D2 beta-arrestin cells, luminescence, 90 min; 100% = 57 uM dopamine signal; potentiation, % (no concentration beside the values); active = potentiation of 50% or more; inconclusive = 30% to 50%; inactive = 30% or less;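 note: compound concentration not given in the record; tested on top of an EC20 dose of dopamine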
#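 PathHunter D2 cells, attached overnight at 37 deg C, received compound in DMSO plus dopamine at EC20 (50 nM final) for 90 min at 37 deg C. Beta-arrestin recruitment was read as luminescence after 1 h with detection reagent at ambient temperature.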
# TRPV1 potentiator: HTS Assay for Compounds that Act as Potentiators of the Vanilloid Receptor 1 | Transient receptor potential cation channel subfamily V member 1 (Homo sapiens), Q8NER1 | TRPV1-expressing cells, Fluo-8 calcium influx, capsaicin EC20 potentiation; host cell line not named in the record; control for the full effect not named in the record | potentiation, % at 8.33 µM | 320,000 compounds, 0.02% hits | AID 540277, 2011; active means potentiation above 80%; inconclusive means 30% to 80%; inactive means below 30%; note: 0% is about no effect
# Target sequence (Q8NER1 whole entry, looked up): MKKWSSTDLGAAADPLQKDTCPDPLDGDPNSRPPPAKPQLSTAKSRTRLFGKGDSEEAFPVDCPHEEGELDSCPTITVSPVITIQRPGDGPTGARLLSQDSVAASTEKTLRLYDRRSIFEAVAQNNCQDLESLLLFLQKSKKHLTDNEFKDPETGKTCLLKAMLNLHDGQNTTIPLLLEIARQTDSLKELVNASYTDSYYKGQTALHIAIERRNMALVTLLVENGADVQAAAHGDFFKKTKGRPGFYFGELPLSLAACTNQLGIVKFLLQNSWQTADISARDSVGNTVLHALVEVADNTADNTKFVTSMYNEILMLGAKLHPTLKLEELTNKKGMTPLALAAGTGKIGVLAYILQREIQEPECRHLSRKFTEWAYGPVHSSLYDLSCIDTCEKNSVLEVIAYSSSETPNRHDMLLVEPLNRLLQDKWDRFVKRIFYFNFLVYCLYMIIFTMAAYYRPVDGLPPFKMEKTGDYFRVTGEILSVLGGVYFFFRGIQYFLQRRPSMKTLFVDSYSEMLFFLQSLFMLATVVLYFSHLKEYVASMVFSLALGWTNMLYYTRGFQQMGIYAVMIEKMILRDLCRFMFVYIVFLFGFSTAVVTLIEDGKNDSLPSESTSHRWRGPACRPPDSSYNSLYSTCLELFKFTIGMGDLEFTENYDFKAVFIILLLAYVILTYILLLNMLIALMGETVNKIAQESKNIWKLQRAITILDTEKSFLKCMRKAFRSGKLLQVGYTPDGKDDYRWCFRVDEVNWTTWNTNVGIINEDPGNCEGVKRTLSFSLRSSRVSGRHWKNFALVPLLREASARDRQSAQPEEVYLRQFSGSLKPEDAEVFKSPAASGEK
#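 TRPV1-expressing cells were cultured overnight at 35.5C and loaded with Fluo-8 calcium dye for 40 to 90 min at room temperature. After a 10 s baseline, compound was added and calcium influx was read kinetically for 3 min (ex 480/em 520 nm).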
# CtBP-E1A inh: qHTS Assay for Inhibitors of the CtBP/E1A Interaction; CtBP / adenovirus E1A interaction (AlphaScreen); AlphaScreen GST-E1A/His-CtBP binding, 1536-well; stronger effect = lower value; control for the full effect not named in the record; activity change, % (no concentration beside the values); 340,000 compounds, 0.49% hits; AID 651724, 2012; in the data active means activity change below about -65%; inconclusive means about -30% to -65%; inactive means above about -30%; note: % is set by controls: 0 for no effect and ±100 for the full control effect
#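 AlphaScreen with 125 nM GST-E1A and 125 nM His-CtBP (5X stocks) in Tris pH 8.0, 300 mM NaCl, BSA, Tween 20, TCEP. Compounds preincubated 2 h at 37 deg C, then glutathione donor/nickel acceptor beads added for 1 h at 37 deg C in dark.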
# Six1-Eya2 blk: qHTS Assay for Inhibitors of the Six1/Eya2 Interaction | AlphaScreen GST-Six1/His-Eya2 binding, biochemical; stronger effect = lower value; control for the full effect not named in the record | activity change, % (no concentration beside the values) | 360,000 compounds, 0.56% hits; in the data active = activity change below about -65%; inconclusive = about -30% to -65%; inactive = above about -30%; note: % is set by controls: 0 for no effect and ±100 for the full control effect
#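 Homogeneous AlphaScreen proximity assay pairing GST-Six1 with His-tagged Eya2 (added as 5X mix: 250 nM and 500 nM) in 50 mM Tris pH 8.0, 300 mM NaCl, 1 mM TCEP. Glutathione donor and nickel acceptor beads; 1 h, 37 °C, dark.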
# Starred values were filed as active, the others as inactive; ? = inconclusive; . = no result given; & = joins results of further samples. Compounds were not picked by outcome (roughly 0.95% active in at least one column).
SMILES,TRPML1 blocker,TRPML1 agonist,D2 PAM,TRPV1 potentiator,CtBP-E1A inh,Six1-Eya2 blk
COC(=O)C1C(=O)CC(C)(O)C(C(=O)OC)C1c1ccccc1F (stereo not given),-10.9,2.8,-3.5,4.8,7.3,3.9
Clc1ccc(CNc2ccc(N3CCN(Cc4ccccc4)CC3)cc2)cc1,18.7,1.2,-2.7,1.5,-1.6,?
COc1ccc(CCNC(=O)c2nnn(-c3cc(C)cc(C)c3)c2N)cc1OC,3.2,3.1,0.1,-5.9,-7.1,1.1
CCOc1ccc(NS(=O)(=O)c2ccc(C(=O)NCC(c3cccs3)N3CCOCC3)cc2)cc1 (stereo not given),-2.7,16.3,8.1,7.1,0.8,-18.2
Cc1ccc(NC(=O)Cn2c(=O)cnc3ccccc32)cc1S(=O)(=O)N1CCOCC1,3.5,-0.9,1.0,?,.,19.5
COc1ccccc1N1CCN(C(=O)c2cc(S(=O)(=O)N3CCCCC3)ccc2C)CC1,-15.3,-1.0,-0.8,.,0.7,-0.5
CCOc1ccccc1C(=O)N1CCC(C(=O)c2ccc(F)cc2)CC1,2.7,-0.3,-35.7,10.2,3.7,-0.8
COc1cc(/C=N/n2c(C)nc3ccccc3c2=O)ccc1O,.,.,1.0,-13.1,6.0,7.1
C[C@@H]1CN([C@H](C)CO)C(=O)c2c(c3ccccc3n2C)-c2ccccc2CO[C@H]1CN(C)Cc1ccccc1,-8.0,0.5,-9.5,.,2.5,1.0
O=C(N/C(=C/c1ccccc1)C(=O)N1CCCCC1)c1ccc(Br)o1,2.6,0.5,-5.5,-10.2,0.0,9.9
Cc1ccccc1Cn1cc(NC(=O)c2noc3c2CC(C(C)(C)C)CC3)cn1 (stereo not given),11.3,0.0,-5.3,-23.0,-1.4,-2.2
CCOC(=O)COc1ccc2cc(C(=O)OCC)c(=O)oc2c1,1.9,-1.7,-3.6,14.9,5.3,-0.2
Nc1cc(C(=O)OCC(=O)NNC(=O)c2cccs2)ccc1Cl,10.7,0.4,-5.3,17.4,-3.3,-11.4
CC(Oc1ccccc1)c1ccnn1S(C)(=O)=O (stereo not given),-7.4,3.5,0.3,-1.6,-2.6,4.8
CC(OC(=O)Cc1n[nH]c(=O)c2ccccc12)C(=O)Nc1cccc([N+](=O)[O-])c1 (stereo not given),7.7,-0.3,-48.9,12.2,-16.5,8.3
O=C(Cc1ccc(NC(=O)C2CCCN(C(=O)C3CCCC3)C2)cc1)Nc1cccc(C(=O)N2CCCC2)c1 (stereo not given),0.1,0.5,.,.,3.4,-6.1
O=C(CN1CCCC1)N/N=C/c1c(O)ccc2ccccc12,-7.8,1.6,-2.2,7.8,-91.3*,-90.2*
COC(=O)C(NC(=O)c1ccccc1C)(Nc1ncc(S(=O)(=O)c2ccc([N+](=O)[O-])cc2)s1)C(F)(F)F (stereo not given),4.7,4.1,?,8.3,-13.8,-12.3
Cc1c(Cl)cccc1NC(=O)CSc1sc2c(O)cc(=O)[nH]c2c1C#N,8.0,0.0,-4.7,-2.5,1.1,1.9
CCN(CC(=O)Nc1c(F)cccc1F)C(=O)CCc1nc2cc(S(=O)(=O)N3CCOCC3)ccc2n1C,-7.8,-0.1,6.9,-7.4,8.1,-2.0
CCc1nnc2n1N=C(c1ccc(-c3cc(Cl)ccc3Cl)o1)CS2,11.0,2.6,-3.4,.,-3.5,-4.5
CC(OC(=O)c1cccc(-n2cnnn2)c1)C(=O)c1ccccc1 (stereo not given),-0.7,3.7,-2.3,11.9,4.5,1.1
CC1=NS(=O)(=O)NC(C)(C)C1,14.6,-0.3,12.7,.,12.3,3.9
Cc1cc(C)cc(NC(=O)N2CCC(NC(=O)c3ccco3)CC2)c1,0.2,0.5,-10.0,6.3,-8.2,6.7
COc1ccc(Nc2nc(C)c3ccccc3n2)cc1,2.4,-0.4,-13.6,3.3,4.9,6.3
# Following part.
SMILES,TRPML1 blocker,TRPML1 agonist,D2 PAM,TRPV1 potentiator,CtBP-E1A inh,Six1-Eya2 blk
CSc1nc(C)c(C(=O)C[n+]2ccccc2)cc1C#N,-10.0,1.1,-8.9,-1.8,-0.7,7.4
Cc1cc2c(N=NC(=O)CCc3ccccc3)c(O)[nH]c2cc1Br,36.8,2.2,-5.8,20.6,0.0,-11.3
O=C(Cc1ccc([N+](=O)[O-])cc1)N/N=C/c1cccnc1,-29.7,0.9,-2.1,.,0.0,11.8
O=C(CSc1nnc2ccc(-c3ccccn3)nn12)Nc1ccc(F)cc1F,3.4,0.3,-15.7,2.7,-3.3,4.5
Cc1c(C(=O)N(Cc2ccccc2Cl)C2CCS(=O)(=O)C2)oc2ccccc12 (stereo not given),-0.7,0.0,8.0,-10.0,-1.3,-7.8
CC1=NNC(=O)C1CC(=O)N/N=C(/C)c1cccc([N+](=O)[O-])c1 (stereo not given),-3.9,0.3,-5.3,2.9,-11.5,27.3
O=c1c2cc3c(=O)n(-c4ccccc4O)c(=O)c3cc2c(=O)n1-c1ccccc1O,-2.8,-0.8,0.6,-7.3,0.0,0.2
NS(=O)(=O)c1ccc(CCNC(=O)CNC(=O)c2ccc(Br)o2)cc1,-4.1,0.3,-5.4,-1.1,0.8,-0.5
COc1cc(Cl)ccc1OCc1cc(C(=O)N(C)CCc2cnn(C)c2)no1,11.2,-0.8,-21.0,-14.9,-0.5,0.5
CC(=O)c1cc(C#N)c(SCC(=O)O)nc1C,-12.7,0.6,-5.1,5.5,2.8,1.0
COc1ccc(N(CC(=O)Nc2ccc3c(c2)OCO3)S(=O)(=O)c2ccccc2)cc1OC,4.2,1.4,4.0,-2.0,-0.4,-0.2
C=CCn1nnnc1SCC(=O)Nc1ccccc1C(=O)OC,14.6,1.3,-0.7,6.6,-0.1,1.9
O=C(NCCNc1ccc([N+](=O)[O-])cc1)c1ccccc1F,11.1,1.1,-3.2,-11.2,1.4,-4.1
COc1cc2cc(C#N)c(SCC(=O)N3CCOCC3)nc2cc1OC,-2.0,0.2,-1.3,9.4,-15.7,-6.6
Cc1csc(SC(C)c2nc3scc(-c4ccccc4)c3c(=O)[nH]2)n1 (stereo not given),21.1,0.4,-14.0,3.3,.,-4.6
CCn1c(CNC(=O)c2ccc(F)cc2)cc2ccccc21,-4.5,-1.4,-4.3,-10.0,.,0.2
COc1ccc(-c2cc(C(F)(F)F)c3c(n2)sc2c(O)cc(=O)[nH]c23)c(OC)c1,-6.5,4.8,-8.5,7.1,?,?
CC1SC(c2ccc(Cl)cc2Cl)NC1=O (stereo not given),8.4,2.9,15.6,-6.1,0.0,0.1
Clc1ccc(-c2csc(N3CCOCC3)n2)cc1,-0.5,-0.8,-11.0,18.8,0.4,-11.4
COc1ccc(NS(=O)(=O)c2cccc(C(=O)N3CCCC(C)C3)c2)cc1 (stereo not given),6.7,1.6,-7.6,-5.1,3.6,2.2
CSc1nncc(-c2ccc(F)cc2)n1,-7.5,-0.9,-1.0,3.8,-0.5,1.0
COC(=O)c1c(N)n(CCCN2CCOCC2)c2nc3ccccc3nc12,12.1,4.1,3.7,-2.2,-13.3,-4.2
COc1ccc(NC(=S)Nc2cnc3ccccc3c2)c(OC)c1,0.9,-0.8,-8.3,-1.1,.,1.1
CCCOC(=O)CCCCC1SCC(NC(=O)OC)C1NC(=O)OC (stereo not given),5.9,0.1,-14.8,5.3,11.5,-0.1
Cc1ccc(N(CC(=O)NC2CCCCC2C)S(=O)(=O)c2c(C)nn(C)c2C)cc1 (stereo not given),-3.4,-1.3,-1.2,17.7,7.4,4.3

# Quoted at random: 6 entries already listed
SMILES,TRPML1 blocker,TRPML1 agonist,D2 PAM,TRPV1 potentiator,CtBP-E1A inh,Six1-Eya2 blk
COc1ccc(NC(=S)Nc2cnc3ccccc3c2)c(OC)c1,0.9,-0.8,-8.3,-1.1,.,1.1
COc1ccc(NS(=O)(=O)c2cccc(C(=O)N3CCCC(C)C3)c2)cc1 (stereo not given),6.7,1.6,-7.6,-5.1,3.6,2.2
O=c1c2cc3c(=O)n(-c4ccccc4O)c(=O)c3cc2c(=O)n1-c1ccccc1O,-2.8,-0.8,0.6,-7.3,0.0,0.2
CC1SC(c2ccc(Cl)cc2Cl)NC1=O (stereo not given),8.4,2.9,15.6,-6.1,0.0,0.1
CC1=NNC(=O)C1CC(=O)N/N=C(/C)c1cccc([N+](=O)[O-])c1 (stereo not given),-3.9,0.3,-5.3,2.9,-11.5,27.3
O=C(Cc1ccc([N+](=O)[O-])cc1)N/N=C/c1cccnc1,-29.7,0.9,-2.1,.,0.0,11.8

# New compounds follow.
SMILES,TRPML1 blocker,TRPML1 agonist,D2 PAM,TRPV1 potentiator,CtBP-E1A inh,Six1-Eya2 blk
COc1ccc(C(NC(=O)C(C)(C)C)NC(=O)C(C)(C)C)cc1,-12.1,-0.1,-2.5,-3.5,5.0,0.6
CC1=NNC(=O)/C1=C\c1cn(-c2ccccc2)nc1-c1cccs1,-14.5,9.0,-12.2,-4.4,.,1.2
CCOC(=O)CNC(=S)N(Cc1ccco1)Cc1ccccc1Cl,42.5,3.2,-8.0,-17.0,-9.5,-5.8
CCOc1c(N2CC(C)OC(C)C2)c(=O)c1=O (stereo not given),17.3,0.7,-6.4,1.3,-9.0,13.8
O=C(/C=C/c1ccccc1[N+](=O)[O-])N1CCOCC1,1.4,-0.6,-6.6,-16.0,-4.1,-9.6
O=S(=O)(Nc1ccc(C(O)(C(F)(F)F)C(F)(F)F)cc1)c1ccc(Cl)c2nonc12,28.9,-0.4,-2.0,.,3.3,-2.4
c1ccc(Oc2cccc(OCCn3cncn3)c2)cc1,-3.4,-1.0,3.9,5.1,2.1,0.3
COc1ccc(CNC(=O)CCC(=O)n2ncc3cc(C)ccc32)cc1,11.3,0.1,-2.2,13.1,-7.5,3.6
O=C(CN1C(=O)c2ccccc2S1(=O)=O)NCCSCc1ccccc1Cl,11.9,3.8,0.6,7.0,-9.8,-6.1
Cc1ccc(C)c(NC(=O)CCOc2ccccc2)c1,3.8&34.2,1.4&-0.1,-9.3,-6.9,2.5,1.1
CC(C)(C)C(=O)Nc1cc(C(F)(F)F)ccc1N1CCOCC1,0.0,-1.0,-4.0,17.3,-1.0,1.2
Cc1cc(C)c(C)c(S(=O)(=O)N2CCC(C(=O)N3CCCC3)CC2)c1C,2.6,0.1,-13.7,13.8,-23.5,-9.4
CN1C(=O)N(CC(=O)c2ccc3c(c2)OCO3)C(=O)C12CCCCC2,17.0,-0.1,-0.7,.,3.6,7.8
Cc1cccc(NC(=O)N2CCC(NC(=O)C3CCCCC3)CC2)c1,10.2,0.8,-2.4,2.4,2.9,4.5
NC(c1csc(Nc2ccc(C(F)(F)F)cn2)n1)C1CCCCC1 (stereo not given),.,3.6,-1.8,.,-13.4,-12.4

# Screens deposited in PubChem BioAssay by National Center for Advancing Translational Sciences (NCATS).
